From PubChem BioAssay
Bead autofluor = counter-screen for toxin protease inhibitors: compound fluorescence. fluorescence intensity (test concentration not listed). actives 3.1% (n = 360,000). compound autofluorescence counterscreen, microsphere flow cytometry; stronger effect = higher value;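 active = at least 3 SD above the mean of all compounds, about 16000 in these data; inconclusive = too few beads counted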;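 note: 100 nL of 1 mM stock went into each well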
ugtP null kill = growth inhibition of ugtP-null S. aureus, primary screen, RN4220 ugtP deletion, OD600. 16 h; some inactives read as strong as hits. growth inhibition, % (concentration not given with the values). actives 0.54% (n = 330,000). AID 1259309, 2017;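 active = z-score under -3 and OD600 up to 0.15 on both plates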;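 note: plate controls were untreated wells for no effect and antibiotic for full effect; wells of about 80 µL received 100 nL stock; the first replicate is given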
RN4220 kill = growth inhibition of S. aureus RN4220, primary screen, OD600; 16 h; inhibition, % (concentration not given with the values); actives 0.33% (n = 330,000); AID 1259311, 2017;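 active = z-score of -3 or lower and OD600 up to 0.18 on both plates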;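 note: plate controls were untreated cells for no effect and reference antibiotic for full effect; stock transfer was 100 nL into about 80 µL; one replicate is shown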
Mtb hypoxia inh = PubChem AID 1159583. fluorescence inhibition, % (no concentration beside the values). actives 0.1% (n = 300,000). M. tuberculosis hypoxia-regulated fluorescent reporter, fluorescence;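 active = 35 to 45% if threefold the growth effect, above 45% if 1.5-fold the growth effect; inactive = the rest, general growth blockers included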;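 note: wells of about 50 µL received 100 nL stock; 0% = vehicle wells and 100% = reference inhibitor wells; whole bacteria with a GFP reporter of the hypoxia response; strong numbers were not always called active; many hits fall short of the cut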
PrP 5UTR inh = inhibition of PrP 5' UTR reporter expression | AID 488862, 2010 | inhibition, % (concentration not given with the values) | cell-based PrP 5' UTR mRNA reporter, plate reader | actives 0.35% (n = 340,000);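 active = every replicate at 50% or more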;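 note: 0 = median of the neutral control wells; tested in H4 reporter cells; numbers are from one replicate; inactives centre near -14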
BJeLR lethal = MLPCN primary cell-based screen for lethality selective to Ras in HRASV12 cells; BJeLR (HRASV12) viability, CellTiter-Glo ATP luminescence, 48 h; reference of the scale not given here; inhibition, % (test concentration not listed); actives 0.17% (n = 300,000);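 active = replicate mean above 50%; inconclusive = above 50% but judged a plate artefact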;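 note: 50 nL library stock added to about 25 µL; numbers are from one replicate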
Mtb hypoxia inh growth = also measured in Mtb hypoxia inh; calls as there; growth inhibition, %; measured here: M. tuberculosis growth (absorbance);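 0% = vehicle and 100% = reference antibiotic; read after six days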
An asterisk follows results filed as active; & = joins results of further samples.

For Cc1cc(C(=O)O)ccc1-c1ccc(/C=C2\NC(=O)N(Cc3ccccc3Cl)C2=O)o1 the results were Bead autofluor 4188, PrP 5UTR inh 3.1 and BJeLR lethal -7.4.
Screening COc1cccc(OC)c1Oc1ccc(C(F)(F)F)cn1 returned Bead autofluor 9180, ugtP null kill -7.6, RN4220 kill 5.4, Mtb hypoxia inh 4.0, PrP 5UTR inh -0.7, BJeLR lethal 1.5 and Mtb hypoxia inh growth 4.1.
`CC(=O)Nc1ccc(NC(=O)c2ccccc2-n2cnnn2)cc1` gave Bead autofluor 5345, ugtP null kill 5.7, RN4220 kill 3.9, Mtb hypoxia inh 3.8, PrP 5UTR inh -7.5 and Mtb hypoxia inh growth -0.5.
Screening c1ccc2c(c1)COC(CN1CCCCC1)OC2 returned Bead autofluor 4441, ugtP null kill 6.6, RN4220 kill 6.1, Mtb hypoxia inh 0.3, PrP 5UTR inh -8.3, BJeLR lethal -7.2 and Mtb hypoxia inh growth -6.3.
Screening Cc1cc(=O)oc2cc(O[C@@H]3O[C@H](CO)[C@H](O)[C@H](O)[C@H]3O)ccc12 returned Bead autofluor 4070, ugtP null kill 6.1, RN4220 kill 0.0, Mtb hypoxia inh 6.8, PrP 5UTR inh -13.2, BJeLR lethal -0.4 and Mtb hypoxia inh growth 8.0.
Cc1cc(C)c(NC(=O)c2ccc(CNS(=O)(=O)c3cc(C(F)(F)F)ccc3Cl)cc2)c(C)c1 was read as Bead autofluor 1964, ugtP null kill -8.9, RN4220 kill 1.4, Mtb hypoxia inh 5.1, PrP 5UTR inh -13.5, BJeLR lethal 1.4 and Mtb hypoxia inh growth -5.0.
Cc1ccc(S(=O)(=O)NCC(=O)N(CC(=O)NCc2ccco2)Cc2ccco2)cc1 was read as Bead autofluor 4183, ugtP null kill 1.7, RN4220 kill 5.1, Mtb hypoxia inh 4.8, PrP 5UTR inh 0.3, BJeLR lethal -1.0 and Mtb hypoxia inh growth 3.4.
Screening Cc1cc(NCCN2CCOCC2)n2c(nc3ccccc32)c1C#N returned Bead autofluor 4335, ugtP null kill 3.6, RN4220 kill 0.0, PrP 5UTR inh -4.0 and BJeLR lethal -2.3.
CCN(CC)CCn1c2c(c(SCC(=O)NCc3ccccc3)nc1=O)CCC2 was read as Bead autofluor inconclusive, PrP 5UTR inh 16.0 and BJeLR lethal 13.1.
Screening Cc1cccc(OCCn2ccnc2)c1C returned Bead autofluor 2984, ugtP null kill 3.8, RN4220 kill 1.4, Mtb hypoxia inh 5.5, PrP 5UTR inh -16.6, BJeLR lethal 6.6 and Mtb hypoxia inh growth 3.0.
Cc1ccc(F)cc1NC(=O)N1CCN(c2ccnc3cc(Cl)ccc23)CC1 was read as ugtP null kill 1.4, RN4220 kill 2.8, Mtb hypoxia inh 5.6, PrP 5UTR inh -0.3, BJeLR lethal -2.9 and Mtb hypoxia inh growth 0.2.
For CCC1CCc2sc(C(=O)NNC(=S)NCC3CCCO3)cc2C1 (configuration not stated) the results were Bead autofluor 6384, ugtP null kill 10.8, RN4220 kill 6.6, Mtb hypoxia inh 3.9, PrP 5UTR inh -4.8 and Mtb hypoxia inh growth -0.3.

Quoted at random: 3 compounds from above
Cc1cc(C)c(NC(=O)c2ccc(CNS(=O)(=O)c3cc(C(F)(F)F)ccc3Cl)cc2)c(C)c1 was read as Bead autofluor 1964, ugtP null kill -8.9, RN4220 kill 1.4, Mtb hypoxia inh 5.1, PrP 5UTR inh -13.5, BJeLR lethal 1.4 and Mtb hypoxia inh growth -5.0.
Screening Cc1cc(=O)oc2cc(O[C@@H]3O[C@H](CO)[C@H](O)[C@H](O)[C@H]3O)ccc12 returned Bead autofluor 4070, ugtP null kill 6.1, RN4220 kill 0.0, Mtb hypoxia inh 6.8, PrP 5UTR inh -13.2, BJeLR lethal -0.4 and Mtb hypoxia inh growth 8.0.
For CCC1CCc2sc(C(=O)NNC(=S)NCC3CCCO3)cc2C1 (configuration not stated) the results were Bead autofluor 6384, ugtP null kill 10.8, RN4220 kill 6.6, Mtb hypoxia inh 3.9, PrP 5UTR inh -4.8 and Mtb hypoxia inh growth -0.3.

More entries follow.
CC1CN(C(=O)c2ccccc2)C(=Nc2cccc(S(=O)(=O)N(C)C)c2)S1 (configuration not stated) was read as Bead autofluor 2624, ugtP null kill -1.5, RN4220 kill 0.4, Mtb hypoxia inh -4.2, PrP 5UTR inh -17.5, BJeLR lethal 2.8 and Mtb hypoxia inh growth 2.0.
CCOC(=O)CNC(=O)CSc1nc(Cc2ccccc2)nc2ccccc12 was read as Bead autofluor 3428, ugtP null kill 0.5, RN4220 kill 1.3, Mtb hypoxia inh -7.4, PrP 5UTR inh -42.5, BJeLR lethal -8.8 and Mtb hypoxia inh growth -6.4.
`C=C(C)[C@@H]1CC[C@]2(C(=O)O)CC[C@]3(C)[C@H](CC[C@@H]4[C@@]5(C)CC[C@H](O)C(C)(C)[C@@H]5CC[C@]43C)[C@@H]12` gave Bead autofluor 6924, PrP 5UTR inh -3.1 and BJeLR lethal -12.7.
Screening Fc1ccc2[nH]c3c(NCCN4CCOCC4)ncnc3c2c1 returned Bead autofluor 2848, ugtP null kill 2.8, RN4220 kill 4.5, Mtb hypoxia inh 5.0, PrP 5UTR inh -10.8, BJeLR lethal 2.0 and Mtb hypoxia inh growth -1.2.
For CCOc1ccc2nc(N=Nc3c(O)[nH]c(=S)[nH]c3=O)sc2c1 the results were Bead autofluor 4225, PrP 5UTR inh -20.2 and BJeLR lethal 12.8.
Screening NC(=O)c1nsc(C(=O)N(c2ccc(F)cc2)C(C(=O)NCC2CCCO2)c2ccc3ncccc3c2)c1N (configuration not stated) returned Bead autofluor 3490, ugtP null kill 3.5, RN4220 kill 3.1, Mtb hypoxia inh -3.3, PrP 5UTR inh 1.9, BJeLR lethal -4.9 and Mtb hypoxia inh growth 0.2.
CCN(CC)S(=O)(=O)c1ccc(-c2cn3cc(Cl)ccc3n2)cc1 was read as Bead autofluor 3731, PrP 5UTR inh -32.0 and BJeLR lethal 11.0.
`CCn1cc(S(=O)(=O)NCc2ccc3c(c2)OCO3)cn1` gave Bead autofluor 6744, ugtP null kill 4.6, RN4220 kill -1.1, Mtb hypoxia inh 0.7, PrP 5UTR inh -9.9, BJeLR lethal -6.0 and Mtb hypoxia inh growth -0.5.
Screening O=c1[nH]c(=O)n(C2CC(O)C(CO)O2)cc1I (configuration not stated) returned Bead autofluor 3880, ugtP null kill -1.8, RN4220 kill 3.1, Mtb hypoxia inh -1.8, PrP 5UTR inh -37.3 and Mtb hypoxia inh growth -0.2.
For CCc1cc2c(=O)c(-c3nc4ccccc4n3C)coc2c(CN2CCN(C)CC2)c1O the results were Bead autofluor 4735, ugtP null kill 1.7, RN4220 kill 1.5, PrP 5UTR inh -14.0&-39.3 and BJeLR lethal -7.7.
Screening O=C1COc2ccc(NC(=O)N3CCN(c4ccc(F)cc4)CC3)cc2N1 returned Bead autofluor 22426*, ugtP null kill -6.0, RN4220 kill 4.8, Mtb hypoxia inh 2.7, PrP 5UTR inh -2.0, BJeLR lethal 2.6 and Mtb hypoxia inh growth 2.5.
For CCO[C@@H]1OC(C(=O)N2CCCCCCC2)=C[C@H](c2csc3ccccc23)[C@H]1CCCO the results were Bead autofluor 4384, PrP 5UTR inh 9.4 and BJeLR lethal 7.9.
CCS(=O)(=O)N1CCCC(C(=O)NCc2cccnc2)C1 (configuration not stated) was read as Bead autofluor 3285, PrP 5UTR inh -16.4 and BJeLR lethal -0.3.
Cc1ccc(-c2cc(C(=O)NN=C/C(Br)=C/c3ccccc3)n[nH]2)o1 was read as ugtP null kill 12.6, RN4220 kill 6.6, Mtb hypoxia inh 8.2 and Mtb hypoxia inh growth 7.4.
Screening CCOc1cc(C(=O)N(C)Cc2cc3cc(OC)ccc3[nH]c2=O)cc(OCC)c1OCC returned Bead autofluor 3678, ugtP null kill 6.3, RN4220 kill 6.7, PrP 5UTR inh 18.5 and BJeLR lethal -5.8.
For COc1ccc(C2=CC3=C(Br)C(=O)C(C)(OC(=O)c4cccs4)C(=O)C3=CO2)cc1 (configuration not stated) the results were Bead autofluor 4150, ugtP null kill 3.1, RN4220 kill 7.7, Mtb hypoxia inh 17.8, PrP 5UTR inh -20.9, BJeLR lethal -13.9 and Mtb hypoxia inh growth 7.6.
O=C(/C=C/c1ccc([N+](=O)[O-])cc1)NCCc1ccc(F)cc1 was read as Bead autofluor 2484, ugtP null kill 9.2, RN4220 kill -0.8, Mtb hypoxia inh 3.4, PrP 5UTR inh -8.1, BJeLR lethal 3.0 and Mtb hypoxia inh growth 12.9.
Screening CC(=O)n1cc(/C=N/NC(=O)c2ccccc2O)c2ccccc21 returned Bead autofluor 3870, PrP 5UTR inh -43.5 and BJeLR lethal 1.8.
O=C(CSc1nnc(CNC(=O)c2ccc(F)cc2)o1)NCCc1ccccc1 was read as Bead autofluor 4308, ugtP null kill 2.8, RN4220 kill -0.3, Mtb hypoxia inh 15.6, PrP 5UTR inh -10.8, BJeLR lethal 0.5 and Mtb hypoxia inh growth 4.9.
O=C(NCCc1cccs1)C1CC(c2cccc(F)c2)=NO1 (configuration not stated) was read as Bead autofluor 2756, ugtP null kill 3.2, RN4220 kill 5.8, Mtb hypoxia inh -0.6, PrP 5UTR inh -17.2, BJeLR lethal -4.8 and Mtb hypoxia inh growth 4.5.
For CCN(CC(=O)Nc1ccc(NC(C)=O)cc1)C(=O)c1oc2ccccc2c1C the results were Bead autofluor 3795, ugtP null kill 1.0, RN4220 kill -0.7, Mtb hypoxia inh -0.8, PrP 5UTR inh 1.5, BJeLR lethal -5.7 and Mtb hypoxia inh growth -4.4.
`CC(C)N(CC(=O)Nc1ccc(Cl)cc1C(F)(F)F)C(=O)CCl` gave Bead autofluor 3334, ugtP null kill -8.8, RN4220 kill 2.5, Mtb hypoxia inh 0.8, PrP 5UTR inh -6.2, BJeLR lethal -6.1 and Mtb hypoxia inh growth 0.2.
Screening O=C1CC(C(=O)N(c2cccc(F)c2)C(C(=O)NC2CCCC2)c2ccccn2)CS1 (configuration not stated) returned Bead autofluor 11376, ugtP null kill 4.7, RN4220 kill 0.1, Mtb hypoxia inh 5.6, PrP 5UTR inh -12.9, BJeLR lethal 2.2 and Mtb hypoxia inh growth 7.7.
O=C(O)C1CCN(S(=O)(=O)c2ccc(Oc3ccccc3)cc2)CC1 was read as Bead autofluor 6384, ugtP null kill -4.4, RN4220 kill 9.4, Mtb hypoxia inh 8.3, PrP 5UTR inh -10.3, BJeLR lethal -22.5 and Mtb hypoxia inh growth 6.0.
For CCOc1ccc(NS(=O)(=O)c2cc(OCC(N)=O)c(C)cc2Cl)cc1 the results were Bead autofluor 2448, ugtP null kill 13.1, RN4220 kill 0.4, Mtb hypoxia inh 1.4, PrP 5UTR inh -1.5, BJeLR lethal -6.3 and Mtb hypoxia inh growth -1.3.
Screening CCc1nnc(NC(=O)c2c(O)c3c([nH]c2=O)CCCC3)s1 returned Bead autofluor 9116, ugtP null kill 3.5, RN4220 kill 13.5, Mtb hypoxia inh 8.9, PrP 5UTR inh -49.9, BJeLR lethal 2.9 and Mtb hypoxia inh growth 7.6.
Screening COc1ccccc1NC(=O)Nc1sccc1-c1nc2ccccc2s1 returned Bead autofluor 6250, ugtP null kill 3.6, RN4220 kill -9.9, Mtb hypoxia inh -1.9, BJeLR lethal -4.5 and Mtb hypoxia inh growth 15.4.
Cc1cc(C(F)(F)F)nn1Cc1ccc(C(=O)NCc2ccco2)o1 was read as Bead autofluor 7977, ugtP null kill 3.5, RN4220 kill 2.0, Mtb hypoxia inh 3.7, PrP 5UTR inh -31.5, BJeLR lethal -12.3 and Mtb hypoxia inh growth 3.6.
`COc1ccc(/C=C2\CCCC3C2=NN(C(=O)c2scnc2C)C3c2ccc(OC)c(OC)c2)cc1OC` (configuration not stated) gave Bead autofluor 9958, ugtP null kill -6.8, RN4220 kill 8.0, Mtb hypoxia inh 9.8, PrP 5UTR inh -51.0, BJeLR lethal -5.8 and Mtb hypoxia inh growth 9.7.
For COc1ccccc1C1(CC(=O)O)CCOC(C(C)C)C1 (configuration not stated) the results were Bead autofluor 3524, ugtP null kill -4.9, RN4220 kill 10.3, PrP 5UTR inh -3.9 and BJeLR lethal 3.3.
Screening O=C(CSc1nnc(NC2CC2)s1)Nc1ccc(N2CCOCC2)cc1 returned Bead autofluor 3102, ugtP null kill 1.7, RN4220 kill 3.8, Mtb hypoxia inh 9.5, PrP 5UTR inh -16.0 and Mtb hypoxia inh growth 1.6.

An unsorted share of the library; about 3.9% have a hit in one of these screens.
